Wee1 degr inh: blocks degradation of human Wee1 kinase; P30291; AID 1321; HeLa Luc-Wee1K328M stability, luciferase luminescence; 100% = proteasome inhibitor MG132 effect; actives 1.2% (n = 220,000); reporter increase, % at 5 µM;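 active = activation above the mean of all tested compounds plus 3 SD, set per screening run, cut at about 8.8% in these data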;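 also: cells exposed to compound for 20 h before luminescence read; 0% = DMSO alone and 100% = MG132 at 30 µM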
Target sequence (P30291 whole entry K328M): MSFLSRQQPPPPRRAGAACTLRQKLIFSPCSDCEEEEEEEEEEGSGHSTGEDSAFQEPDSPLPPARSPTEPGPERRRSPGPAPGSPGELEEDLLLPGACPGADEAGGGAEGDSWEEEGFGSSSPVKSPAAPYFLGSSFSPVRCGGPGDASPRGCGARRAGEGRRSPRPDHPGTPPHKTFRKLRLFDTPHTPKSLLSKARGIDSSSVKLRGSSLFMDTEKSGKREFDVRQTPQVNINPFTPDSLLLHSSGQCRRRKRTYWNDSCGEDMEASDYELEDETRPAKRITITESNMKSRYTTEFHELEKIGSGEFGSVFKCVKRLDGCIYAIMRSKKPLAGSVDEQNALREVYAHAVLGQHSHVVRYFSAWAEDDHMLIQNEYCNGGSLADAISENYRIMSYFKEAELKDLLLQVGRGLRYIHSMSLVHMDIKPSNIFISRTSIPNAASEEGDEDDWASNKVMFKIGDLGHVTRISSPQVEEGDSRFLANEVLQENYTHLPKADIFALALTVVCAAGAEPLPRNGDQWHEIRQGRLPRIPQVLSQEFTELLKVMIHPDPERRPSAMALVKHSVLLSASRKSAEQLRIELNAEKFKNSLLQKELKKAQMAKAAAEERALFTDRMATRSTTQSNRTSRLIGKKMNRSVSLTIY
Hck Nef HTS: human Hck-Nef kinase inhibition; P08631; inhibition, % at 20 µM; Recombinant Hck-YEEI plus Nef, Z-Lyte FRET kinase assay; actives 0.68% (n = 220,000);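 active = Hck-Nef kinase inhibition above about 50%, limit read from the data; inactive = inhibition below that limit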;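 also: 0% = DMSO with Hck plus Nef and 100% = Hck alone without Nef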
FXIa inh 1536: factor XIa (human) inhibition; P03951; purified FXIa, Boc-Glu-Ala-Arg-AMC fluorogenic substrate; inhibition, % at 5 µM; actives 0.14% (n = 220,000);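 active = inhibition of at least 40%; inactive = inhibition below 40%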;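 also: fluorescence of freed AMC excited at 355 nm; 0% = enzyme without compound and 100% = no enzyme blank; many of its hits are not listed in these tables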
FXIIa inh 1536: blocks human coagulation factor XIIa protease activity | P00748 | purified FXIIa, Boc-QGR-AMC fluorogenic substrate, 2 h | inhibition, % at 5 µM | actives 0.3% (n = 220,000); in the data active = inhibition above about 40%;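 also: 0% = enzyme with no compound and 100% = blank without enzyme; many of its hits are not listed in these tables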
Thrombin inh: thrombin (human) inhibition; P00734; alpha-thrombin, Boc-VPR-AMC fluorogenic substrate cleavage; inhibition, % at 5 µM; actives 0.26% (n = 220,000); AID 1046;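 active = inhibition at or above 40%; inactive = inhibition below 40%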;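 also: 0% = enzyme with no compound and 100% = wells without enzyme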
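System – human alpha-thrombin · Medium – pH 7.5 Tris (50 mM) with NaCl 150 mM, Tween 20 0.05% · Compound – single-point dosing at 5 µM, 0.2% DMSO · Incubation – enzyme reaction carried out at room temperature · Technique – fluorescence of released AMC, ex 355 nm, em 460 nm · Read-out basis – % inhibition of thrombin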
14-3-3 Bad PPI: disrupts binding of bovine 14-3-3 zeta to phospho-Bad peptide | inhibition, % at 21.7 µM | P63103 | actives 0.71% (n = 220,000) | TR-FRET 14-3-3zeta/Dy647-pBad peptide displacement, 1 h | AID 781;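 active = inhibition above about 70%, limit read from the data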;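 also: 0% = full 14-3-3 plus peptide FRET controls and 100% = background without 14-3-3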
Numbers without * were called inactive; [ ] = remark or other dose. An excerpt. The share of hits here may be higher or lower than overall.

Compound,Wee1 degr inh,Hck Nef HTS,FXIa inh 1536,FXIIa inh 1536,Thrombin inh,14-3-3 Bad PPI
O=C(Cn1ncc2c1-c1ccccc1OC2)N1CCc2ccccc21,3,18,6,14,-5,3
O=C(c1cccnc1)N1CCN(Cc2cccc(F)c2)CC1,0,2,8,14,0,75*
N=c1c2c(-c3ccccc3)c(-c3ccccc3)n(Cc3ccccc3)c2ncn1CCCO,0,1,2,7,2,-9[fluorescence artefact?]
CCOC(=O)c1cnn(-c2ccccc2)c1NC(=O)C(F)(F)C(F)(F)C(F)(F)F,0,4,-10,10,2,13
CC(=O)NC1(NC(C)=O)CCN(C)C(c2ccccc2)C1C (centres undefined),2,1,6,13,4,11[fluorescence artefact?]
CC(C)C(=O)N1CCN(C2=NS(=O)(=O)c3ccccc32)CC1,-1,9,-6,-7,-6,-1
COc1cccc(C2=NOC(C(=O)NC(C)C)C2)c1 (centres undefined),-2,2,4,10,3,7
Cc1nnc(SCC(=O)NCc2cccs2)[nH]c1=O,-2,1,-6,-3,-6,-8
CCOC(=O)c1ccc(NC(=O)CCOc2ccc(OC)cc2)cc1,1,2,5,9,2,-8[fluorescence artefact?]
COc1ccc2cc(CN(CCO)C(=O)c3ccc(Br)cc3)c(=O)[nH]c2c1,0,3,-5,6,-5,7
COC(CNC(=O)c1ccc(N2CCCC2=O)cc1)OC,-1,0,-3,4,-5,-3
COc1ccccc1NC(=O)CSc1nccc(=O)[nH]1,-1,14,-3,13,-8,1
Cc1ccnc(SCC(=O)Nc2sc3c(c2C#N)CCC(C(C)(C)C)C3)n1 (centres undefined),-1,0,-2,4,-5,0
CCC(C)C(NC(=O)OC(C)(C)C)C(=O)NCc1ccco1 (centres undefined),-2,2,-6,-3,-12,12
Cc1ccc(NC(=O)Cn2nc(C)c3ccccc3c2=O)cc1F,-2,8,0,13,3,-3
CCCC(O)(CCN1CCCCC1)c1ccc(OCC)cc1 (centres undefined),-1,0,-2,6,-5,3
O=C(Oc1ccccc1)c1c(Cl)cccc1P(=O)(O)O,-1,1,-8,8,-3,46
O=C(OC1CCCCC1)c1ccc2c(c1)C1C=CCC1C(C(=O)O)N2 (centres undefined),-1,77*,7,12,1,45
NC(N)=Nc1nc(CSCC/C(N)=N/S(N)(=O)=O)cs1,7,-3,8,1,-2,-3
Cc1ccc(C(=O)CCC(=O)Nc2cccc(C(F)(F)F)c2)cc1,-2,0,1,14,3,1
CC(Sc1nc2ccccc2s1)C(=O)N1CCOCC1 (centres undefined),1,6,-2,6,-1,-6
CC1C/C(=N/O)C(C)CN1 (centres undefined),0,3,1,-7,-9,-24
COc1ccccc1NS(=O)(=O)c1cc(C(=O)N2CC(C)CC(C)C2)ccc1C (centres undefined),-1,2,0,4,2,-2
CCN1CCN(C(=O)CS(=O)Cc2nc(-c3ccc(OC)cc3)oc2C)CC1 (centres undefined),1,-1,6,8,-6,6
O=C(C(Cc1ccccc1)N1C(=O)C2C3C=CC(C3)C2C1=O)N1CCCCCC1 (centres undefined),0,0,7,7,-2,5
CCOC(=O)c1ccc(NC(=O)CSc2nc3c(c(=O)n2CC)SC(C)C3)cc1 (centres undefined),0,-3,-7,3,-8,0
COc1cccc(NC(=O)N(C2CCCCC2)C(C)c2cccs2)c1 (centres undefined),3,1,-3,10,-2,0
CC1(C)N=C(SCC(=O)Nc2ccccc2)C(c2ccc(Cl)cc2)=N1,-2,1,-16,1,-5,-1
CCCNC(=O)c1ccccc1NC(=O)COc1ccc(OC)cc1,-2,0,-6,4,-5,5
Cn1c(CCN2CCCCC2)nc2cc(NS(=O)(=O)c3ccccc3)ccc21,0,-2,0,10,5,-9
COc1ccc(C2CC(=O)c3cnc(NC(=O)c4cccc(OC)c4)nc3C2)cc1 (centres undefined),4,1,7,15,4,0

A draw from above in order of count of non-hydrogen atoms, largest number first:
Compound,Wee1 degr inh,Hck Nef HTS,FXIa inh 1536,FXIIa inh 1536,Thrombin inh,14-3-3 Bad PPI
N=c1c2c(-c3ccccc3)c(-c3ccccc3)n(Cc3ccccc3)c2ncn1CCCO,0,1,2,7,2,-9[fluorescence artefact?]
COc1ccc(C2CC(=O)c3cnc(NC(=O)c4cccc(OC)c4)nc3C2)cc1 (centres undefined),4,1,7,15,4,0
CCOC(=O)c1ccc(NC(=O)CSc2nc3c(c(=O)n2CC)SC(C)C3)cc1 (centres undefined),0,-3,-7,3,-8,0
Cn1c(CCN2CCCCC2)nc2cc(NS(=O)(=O)c3ccccc3)ccc21,0,-2,0,10,5,-9
Cc1ccnc(SCC(=O)Nc2sc3c(c2C#N)CCC(C(C)(C)C)C3)n1 (centres undefined),-1,0,-2,4,-5,0
O=C(OC1CCCCC1)c1ccc2c(c1)C1C=CCC1C(C(=O)O)N2 (centres undefined),-1,77*,7,12,1,45
Cc1ccc(NC(=O)Cn2nc(C)c3ccccc3c2=O)cc1F,-2,8,0,13,3,-3
CC(C)C(=O)N1CCN(C2=NS(=O)(=O)c3ccccc32)CC1,-1,9,-6,-7,-6,-1
COC(CNC(=O)c1ccc(N2CCCC2=O)cc1)OC,-1,0,-3,4,-5,-3
O=C(Oc1ccccc1)c1c(Cl)cccc1P(=O)(O)O,-1,1,-8,8,-3,46
COc1cccc(C2=NOC(C(=O)NC(C)C)C2)c1 (centres undefined),-2,2,4,10,3,7
CC1C/C(=N/O)C(C)CN1 (centres undefined),0,3,1,-7,-9,-24

Screening data from PubChem BioAssay.
